NOMO-1 viab: NOMO-1 AML cell viability reduction, primary screen, STK33 inhibitor project, CellTiter-Glo luminescence; NOMO-1 AML viability, 72 h; 7.5% of 37,000 active; inhibition, % (no concentration beside the values);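 active = most replicates above 80%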;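 note: wells of about 30 µL received 25 nL stock; 0% = median of vehicle wells and 100% = reference inhibitor level; the first replicate is given; inactives centre near 10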
* hit, by the source's call. Some of the compounds tested; the hit share may differ from the screen's.

For Cc1noc(C)c1NC(=O)Nc1cccc2c1O[C@H](CN(C)C(=O)Nc1ccccc1)[C@@H](C)CN([C@H](C)CO)C2=O the results were NOMO-1 viab 31.
For COc1cccc(NC(=O)CSC2CC(=O)N(c3cc(C)cc(C)c3)C2=O)c1 (stereo unspecified) the results were NOMO-1 viab 6.
C[C@H]1CN([C@@H](C)CO)C(=O)Cc2cc(NC(=O)Nc3ccc4c(c3)OCO4)ccc2O[C@@H]1CN(C)CC1CCCCC1 was read as NOMO-1 viab 92*.
`COC(=O)c1sccc1NC(=O)COc1cc(C)ccc1Cl` gave NOMO-1 viab 5.
For C[C@@H]1CCCCO[C@H](CN(C)Cc2ccc(C(=O)O)cc2)[C@@H](C)CN([C@H](C)CO)C(=O)c2cc(N(C)C)ccc2O1 the results were NOMO-1 viab 13.
Screening COc1ccc(S(=O)(=O)Nc2ccc3c(c2)CC(=O)N([C@H](C)CO)C[C@@H](C)[C@H](CN(C)S(C)(=O)=O)O3)cc1 returned NOMO-1 viab 8.
`Cc1ccc(Nc2nc(N)nc(COc3cccc4cccnc34)n2)cc1` gave NOMO-1 viab 111*.
C[C@H](CO)N1C[C@H](C)[C@@H](CN(C)Cc2ccc3c(c2)OCO3)Oc2ccc(NC(=O)Cc3cn(C)c4ccccc34)cc2C1=O was read as NOMO-1 viab 52.
For O=C(CCN1C(=O)c2ccccc2C1=O)Nc1cccc(O)c1 the results were NOMO-1 viab -23.
C[C@@H]1CN([C@@H](C)CO)C(=O)c2cc(NC(=O)Cc3ccccc3)ccc2O[C@@H]1CN(C)Cc1ccc(C(=O)O)cc1 was read as NOMO-1 viab 10.
For O=S(=O)(NC1=NCCCN1)c1cc(C(F)(F)F)cc(C(F)(F)F)c1 the results were NOMO-1 viab 17.
For O=C(CSc1nnc2ccc3ccccc3n12)Nc1nsc(-c2ccc(Cl)cc2)n1 the results were NOMO-1 viab 0.
`C[C@@H]1CN([C@H](C)CO)C(=O)c2cccc(N(C)C)c2O[C@H]1CN(C)Cc1ccccc1` gave NOMO-1 viab 35.
Screening C[C@@H]1CN([C@H](C)CO)C(=O)Cc2cc(NS(=O)(=O)c3ccccc3)ccc2O[C@@H]1CN(C)Cc1ccc(C(=O)Nc2ccccc2N)cc1 returned NOMO-1 viab 116*.
`Cc1noc(C)c1NC(=O)Nc1ccc2c(c1)CC(=O)N([C@H](C)CO)C[C@H](C)[C@H](CN(C)Cc1ccc(C(=O)O)cc1)O2` gave NOMO-1 viab 21.
Screening C[C@@H]1CN([C@H](C)CO)C(=O)c2cc(NS(=O)(=O)c3cn(C)cn3)ccc2O[C@@H]1CN(C)S(=O)(=O)c1ccc(F)cc1 returned NOMO-1 viab 12.
CC(=O)Nc1ccccc1NC(=O)COc1ccc2ccccc2c1Br was read as NOMO-1 viab 39.
For COc1ccc(S(=O)(=O)N(C)C[C@@H]2Oc3ccc(NC(=O)NC(C)C)cc3CC(=O)N([C@H](C)CO)C[C@H]2C)cc1 the results were NOMO-1 viab 17.
For COc1cc(O)cc(C2=C(C)CC(O)C2=O)c1 (stereo unspecified) the results were NOMO-1 viab 3.
Cc1cc(OCC(=O)Nc2ccc(-c3nc4ccccc4s3)c(O)c2)ccc1Cl was read as NOMO-1 viab -4.
`CC(=O)Nc1ccc(NC(=O)CCCN2C(=O)c3ccccc3C2=O)cc1` gave NOMO-1 viab -28.
Screening Cc1noc(C)c1NC(=O)Nc1ccc2c(c1)CC(=O)N([C@@H](C)CO)C[C@H](C)[C@@H](CN(C)Cc1ccc(Oc3ccccc3)cc1)O2 returned NOMO-1 viab 24.
C=CCN1C(=O)NC(C)(C)C1=O was read as NOMO-1 viab 10.
O=C(O)COc1ccc(C(=O)Nc2ccc(F)cc2)cc1 was read as NOMO-1 viab 38.
`O=C(CCN1C(=O)c2ccccc2C1=O)Nc1ccc(Nc2ccccc2)cc1` gave NOMO-1 viab 70.
Screening O=C(O)C1CCCCC1C(=O)NCCc1ccncc1 (stereo unspecified) returned NOMO-1 viab -13.
Cc1ccc([N+](=O)[O-])c(OCCCSc2ncccn2)c1 was read as NOMO-1 viab 23.
Oc1c(C(Nc2ccccn2)c2c(F)cccc2Cl)cc(Cl)c2cccnc12 (stereo unspecified) was read as NOMO-1 viab 108*.
For C[C@@H]1CN([C@@H](C)CO)C(=O)c2cccc(NC(=O)c3cnccn3)c2O[C@@H]1CN(C)C(=O)Nc1ccc(F)cc1 the results were NOMO-1 viab 19.
For COc1ccc(NC(=O)Nc2ccc3c(c2)C(=O)N([C@H](C)CO)C[C@@H](C)[C@@H](CN(C)C(=O)Nc2ccc(C(F)(F)F)cc2)O3)cc1 the results were NOMO-1 viab 15.
Cc1ccc(S(=O)(=O)N(C)CC(=O)Nc2cccc(Cl)c2)cc1 was read as NOMO-1 viab -6.
`C[C@H]1CN([C@@H](C)CO)C(=O)Cc2cc(NS(=O)(=O)c3cccs3)ccc2O[C@@H]1CN(C)S(=O)(=O)c1ccc(F)cc1` gave NOMO-1 viab 19.
Cc1cccc(NC(=O)CCCC(=O)O)c1 was read as NOMO-1 viab -23.
`C[C@@H]1CN([C@@H](C)CO)C(=O)c2cc(NS(=O)(=O)c3ccc(F)cc3)ccc2O[C@@H]1CN(C)S(=O)(=O)c1ccccc1` gave NOMO-1 viab 32.
`CCn1c(SCC(=O)N2CCN(c3ccccc3)CC2)nnc1-c1ccccc1O` gave NOMO-1 viab 16.
For COc1ccc(S(=O)(=O)N(C)C[C@H]2Oc3ccc(NC(=O)Nc4ccc(C(F)(F)F)cc4)cc3C(=O)N([C@@H](C)CO)C[C@@H]2C)cc1 the results were NOMO-1 viab 36.

Quoted at random: two records from the list.
For C[C@@H]1CN([C@@H](C)CO)C(=O)c2cccc(NC(=O)c3cnccn3)c2O[C@@H]1CN(C)C(=O)Nc1ccc(F)cc1 the results were NOMO-1 viab 19.
Cc1ccc([N+](=O)[O-])c(OCCCSc2ncccn2)c1 was read as NOMO-1 viab 23.

Back to the main list; the 3 compounds before the break are reprinted first.
`C[C@@H]1CN([C@@H](C)CO)C(=O)c2cc(NS(=O)(=O)c3ccc(F)cc3)ccc2O[C@@H]1CN(C)S(=O)(=O)c1ccccc1` gave NOMO-1 viab 32.
`CCn1c(SCC(=O)N2CCN(c3ccccc3)CC2)nnc1-c1ccccc1O` gave NOMO-1 viab 16.
For COc1ccc(S(=O)(=O)N(C)C[C@H]2Oc3ccc(NC(=O)Nc4ccc(C(F)(F)F)cc4)cc3C(=O)N([C@@H](C)CO)C[C@@H]2C)cc1 the results were NOMO-1 viab 36.
`CCOC(=O)c1ccc(NC(=O)CN2C(=O)C3C4C=CC(C5CC45)C3C2=O)cc1` (stereo unspecified) gave NOMO-1 viab 1.
`C[C@@H]1CCCCO[C@H](CN(C)C(=O)Nc2ccc(F)cc2)[C@@H](C)CN([C@H](C)CO)C(=O)c2cc(NS(=O)(=O)c3ccc(Cl)cc3)ccc2O1` gave NOMO-1 viab 52.
Cc1nc2sccn2c(=O)c1CCN1CCC(=C(c2ccc(F)cc2)c2ccc(F)cc2)CC1 was read as NOMO-1 viab 59.
C[C@@H]1CN([C@@H](C)CO)C(=O)c2cc(NC(=O)C3CCCCC3)ccc2O[C@@H]1CN(C)S(=O)(=O)c1ccc(Cl)cc1 was read as NOMO-1 viab 15.
`COc1ccc(NC(=O)Nc2ccc3c(c2)CC(=O)N([C@@H](C)CO)C[C@H](C)[C@@H](CN(C)Cc2ccccc2)O3)cc1` gave NOMO-1 viab 30.
O=C(Cn1cnc([N+](=O)[O-])n1)Nc1c(Cl)cccc1Cl was read as NOMO-1 viab -1.
C[C@@H]1CN([C@H](C)CO)C(=O)Cc2cc(NS(=O)(=O)c3ccc(Cl)cc3)ccc2O[C@@H]1CN(C)Cc1ccc(Cl)c(Cl)c1 was read as NOMO-1 viab 117*.
Cc1ccc(S(=O)(=O)Nc2ccc3c(c2)CC(=O)N([C@@H](C)CO)C[C@@H](C)[C@@H](CN(C)C(=O)Nc2ccc4c(c2)OCO4)O3)cc1 was read as NOMO-1 viab 11.
For C[C@H](CO)N1C[C@H](C)[C@H](CN(C)Cc2ccc(Cl)c(Cl)c2)Oc2c(NC(=O)Nc3cccc4ccccc34)cccc2C1=O the results were NOMO-1 viab 107*.
`C[C@@H]1CN([C@H](C)CO)C(=O)c2cc(NC(=O)CCC(F)(F)F)ccc2O[C@H]1CN(C)C` gave NOMO-1 viab -3.
Screening O=C(O)CCN1C(=O)C2C3c4ccccc4C(c4ccccc43)C2C1=O (stereo unspecified) returned NOMO-1 viab 32.
`Cc1cc(=O)[nH]c(SCCCOc2ccc(C(C)C)c(C)c2)n1` gave NOMO-1 viab 15.
Screening C[C@H](CO)N1C[C@H](C)[C@H](CN(C)CC2CC2)Oc2ccc(NS(=O)(=O)c3cn(C)cn3)cc2C1=O returned NOMO-1 viab 14.
C[C@@H]1CN([C@@H](C)CO)C(=O)c2cc(NC(=O)NC3CCCCC3)ccc2O[C@H]1CN(C)Cc1ccc(C(F)(F)F)cc1 was read as NOMO-1 viab 41.
`Nc1cccc(S(=O)(=O)NCc2ccco2)c1` gave NOMO-1 viab 19.
Screening Cc1noc(C)c1NC(=O)N(C)C[C@H]1Oc2ccc(NC(=O)NC3CCCCC3)cc2C(=O)N([C@H](C)CO)C[C@H]1C returned NOMO-1 viab 21.
For O=C(OCC1OC(Oc2ccc(O)cc2COC(=O)C2(O)C(O)CCC2(O)C(=O)O)C(O)C(O)C1O)c1ccccc1 (stereo unspecified) the results were NOMO-1 viab -3.
For C[C@@H]1CN([C@H](C)CO)C(=O)c2cccc(NC(=O)c3cnccn3)c2O[C@H]1CN(C)C(=O)Nc1ccc2c(c1)OCO2 the results were NOMO-1 viab -11.
`C[C@@H]1CN([C@H](C)CO)C(=O)c2cccc(NC(=O)c3cnccn3)c2O[C@H]1CN(C)S(C)(=O)=O` gave NOMO-1 viab 3.
Cc1ccc(N(C(C)C(=O)Nc2ccc(C(F)(F)F)cc2)S(C)(=O)=O)cc1 (stereo unspecified) was read as NOMO-1 viab 31.
For O=C(CSc1ccccn1)Nc1ccccn1 the results were NOMO-1 viab -3.
`C[C@H]1CN([C@@H](C)CO)C(=O)c2cc(NS(=O)(=O)c3cccs3)ccc2O[C@@H]1CN(C)S(C)(=O)=O` gave NOMO-1 viab 12.
Cc1cccc(NC(c2ccccc2[N+](=O)[O-])c2ccc3ccc(C)nc3c2O)n1 (stereo unspecified) was read as NOMO-1 viab 121*.
`CC(C)NC(=O)N(C)C[C@H]1Oc2c(NS(=O)(=O)c3cccs3)cccc2C(=O)N([C@@H](C)CO)C[C@@H]1C` gave NOMO-1 viab -9.

Sorted by number of heavy atoms (low to high): part of the list above.
Cc1ccc(N(C(C)C(=O)Nc2ccc(C(F)(F)F)cc2)S(C)(=O)=O)cc1 (stereo unspecified) was read as NOMO-1 viab 31.
Cc1cccc(NC(c2ccccc2[N+](=O)[O-])c2ccc3ccc(C)nc3c2O)n1 (stereo unspecified) was read as NOMO-1 viab 121*.
`C[C@H]1CN([C@@H](C)CO)C(=O)c2cc(NS(=O)(=O)c3cccs3)ccc2O[C@@H]1CN(C)S(C)(=O)=O` gave NOMO-1 viab 12.

3 consecutive records already listed, quoted:
Screening Cc1noc(C)c1NC(=O)N(C)C[C@H]1Oc2ccc(NC(=O)NC3CCCCC3)cc2C(=O)N([C@H](C)CO)C[C@H]1C returned NOMO-1 viab 21.
For O=C(OCC1OC(Oc2ccc(O)cc2COC(=O)C2(O)C(O)CCC2(O)C(=O)O)C(O)C(O)C1O)c1ccccc1 (stereo unspecified) the results were NOMO-1 viab -3.
For C[C@@H]1CN([C@H](C)CO)C(=O)c2cccc(NC(=O)c3cnccn3)c2O[C@H]1CN(C)C(=O)Nc1ccc2c(c1)OCO2 the results were NOMO-1 viab -11.

Continuation.
Screening C[C@H]1CN([C@@H](C)CO)C(=O)Cc2cc(NC(=O)NC3CCCCC3)ccc2O[C@H]1CN(C)Cc1ccccc1 returned NOMO-1 viab 17.
C[C@H]1CN([C@@H](C)CO)C(=O)c2cccc(NC(=O)C3CC3)c2O[C@H]1CN(C)Cc1ccc(C(=O)Nc2ccccc2N)cc1 was read as NOMO-1 viab 94*.
Cn1c(SCC(=O)Nc2ccc(C(=O)O)cc2)nnc1-c1ccncc1 was read as NOMO-1 viab -10.
Screening COc1ccc(S(=O)(=O)N(C)C[C@H]2Oc3c(NS(=O)(=O)c4ccccc4)cccc3C(=O)N([C@H](C)CO)C[C@H]2C)cc1 returned NOMO-1 viab 27.
`c1csc(-c2nn3c(C4COc5ccccc5O4)nnc3s2)c1` (stereo unspecified) gave NOMO-1 viab 4.
For COc1cccc(-n2nnnc2SCC(=O)Nc2ccccc2OC)c1 the results were NOMO-1 viab 24.
For Cc1cc(OCC(=O)Nc2ccccc2C(=O)Nc2ccccc2)ccc1Cl the results were NOMO-1 viab 23.
`COc1ccccc1CNCc1cccc(OC)c1OC` gave NOMO-1 viab 3.
For C[C@@H]1CN([C@@H](C)CO)C(=O)c2cccc(NC(=O)Nc3ccc(C(F)(F)F)cc3)c2O[C@H]1CN(C)S(=O)(=O)c1ccccc1 the results were NOMO-1 viab 27.
CC(=O)c1c(C)cc(C)c(CSc2nnc(-c3ccco3)o2)c1C was read as NOMO-1 viab 2.
For O=C(CSc1nnc(-c2ccc(Br)cc2)o1)Nc1cc(C(F)(F)F)ccc1Cl the results were NOMO-1 viab 20.
For CC(C)(C)NC(=O)C[n+]1cccc(/C=N/O)c1 the results were NOMO-1 viab 2.
`COc1ccc(NC(=O)N(C)C[C@H]2OCCCC[C@@H](C)Oc3ccc(NC(=O)Nc4ccccc4)cc3C(=O)N([C@H](C)CO)C[C@@H]2C)cc1` gave NOMO-1 viab 16.
Screening O=S(=O)(c1ccc(F)cc1)c1nc(-c2ccc(F)cc2)oc1NCCN1CCOCC1 returned NOMO-1 viab 33.
Cc1cc(OCC(=O)Nc2cccc(-c3nnc(-c4ccccc4)o3)c2)cc(C)c1Cl was read as NOMO-1 viab 52.
For C[C@@H]1CN([C@H](C)CO)C(=O)Cc2cc(NC(=O)CCCCCC(=O)Nc3ccccc3N)ccc2O[C@H]1CN(C)Cc1ccc(Cl)c(Cl)c1 the results were NOMO-1 viab 108*.
C[C@@H]1CN([C@H](C)CO)C(=O)c2cc(NS(C)(=O)=O)ccc2O[C@H]1CN(C)S(=O)(=O)c1ccc(F)cc1 was read as NOMO-1 viab 20.
For Cc1ccc(OCC(=O)N(c2ccccn2)C2CCCCC2)c(C)c1 the results were NOMO-1 viab 22.
For O=C(COc1cc(Cl)c(Cl)cc1Cl)Nc1ncn[nH]1 the results were NOMO-1 viab 1.

From PubChem BioAssay
